Source: PubChem (National Center for Advancing Translational Sciences (NCATS))
Cruzain noTriton: blocks cruzain activity in detergent-free assay. P25779. purified cruzain, Z-FR-AMC fluorescence, no detergent. Potency, µM, inactives show max response, negative = inhibition, hits mostly inhibitors. hit rate 2.3% among 200,000. AID 1476; active = well fitted curve in the direction sought with a large enough effect; inconclusive = small, poorly fitted or top-dose-only effect, or another doubt; inactive = no such curve, though single readings can be large; an effect the other way counts as inactive or inconclusive;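 also: plate controls were enzyme without inhibitor for no effect and buffer without enzyme for full effect; nearly all actives have a fitted effect of over 40% in size; top concentration of the series not given in the record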
Target sequence (P25779 123-467 limits assumed): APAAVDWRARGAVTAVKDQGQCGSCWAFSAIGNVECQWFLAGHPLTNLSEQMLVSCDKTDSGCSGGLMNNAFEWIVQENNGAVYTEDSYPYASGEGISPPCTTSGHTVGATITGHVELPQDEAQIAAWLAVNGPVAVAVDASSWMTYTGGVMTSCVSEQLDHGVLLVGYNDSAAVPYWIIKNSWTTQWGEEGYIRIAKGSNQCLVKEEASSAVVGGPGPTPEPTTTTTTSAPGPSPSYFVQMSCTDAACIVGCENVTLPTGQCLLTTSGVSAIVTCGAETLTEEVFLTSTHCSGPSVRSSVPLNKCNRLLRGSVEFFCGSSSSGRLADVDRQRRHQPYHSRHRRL
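Detergent-free condition (0.00005% Triton X-100) in acetate buffer pH 5.5 with DTT. 1.5 nM enzyme and compound were pre-mixed 15 min, then 2 uM Z-FR-AMC substrate added; reaction progress from fluorescence change between first and third reads (60 s).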
Cruzain Triton: blocks cruzain activity in presence of Triton detergent. P25779. purified cruzain, Z-FR-AMC fluorescence, 0.01% Triton. Potency, µM, for inactives: max response, negative = inhibition, usual class: inhibitors. hit rate 0.43% among 200,000. AID 1478; active = well fitted curve in the direction sought with a large enough effect; inconclusive = small, poorly fitted or top-dose-only effect, or another doubt; inactive = no such curve, though single readings can be large; an effect the other way counts as inactive or inconclusive;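 also: plate controls were neutral wells for no effect and buffer without enzyme for full effect; nearly all actives have a fitted effect of over 40% in size; top concentration of the series not given in the record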
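Sodium acetate buffer (100 mM, pH 5.5) containing 5 mM DTT and 0.01% Triton X-100 hosted 1.5 nM cruzain and test compound for 15 min at room temperature. Cleavage of 2 uM Z-FR-AMC was then tracked by fluorescence.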
MARV entry inh: blocks Marburg virus binding to or entry into cells. AID 540276. Potency, µM (highest dose often 37.8 µM), inactives show at the highest dose activity change, negative = inhibition, most hits filed as inhibitors. Marburg virus pseudotyped entry inhibition, cell reporter; control for the full effect not named in the record; about a third of the inactives were read at about 46 µM. hit rate 1.8% among 300,000; active = well fitted inhibition curve with a large enough effect; inconclusive = small, poorly fitted or top-dose-only effect, or effect the other way; inactive = flat fitted curve, though single readings scatter; tested in HEK293 cells; about a fifth of its hits are not listed in these tables; also: % is scaled to controls: 0 for no effect and ±100 for the full control effect; luciferase read-out
RE007 growth inh: less growth of the S. pombe RE007 Vpr strain; hit rate 0.21% among 360,000; Potency, µM (doses to about 92.2 µM), for inactives: top-dose activity change, negative = less growth; S. pombe RE007 Vpr strain, BacTiter-Glo ATP luminescence, 24 h; control for the full effect not named in the record; active = well fitted falling curve with a large enough effect; inconclusive = small, poorly fitted or top-dose-only effect; inactive = no such curve, though single readings can be large or run the other way;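 also: % is scaled to controls: 0 for no effect and ±100 for the full control effect; nearly all actives have a fitted effect of over 50% in size; the assay follows cell death caused by Vpr and the record does not say whether a fall means rescue or toxicity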
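Fission yeast RE007 carrying one integrated HIV-1 vpr copy, seeded at OD 0.01 in PMG+AL medium with 23 nL pinned compound. Grown 24 h at 30 degrees; viability read by BacTiter-Glo luminescence after 5 min.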
NS1 inh: influenza NS1 inhibition; S. cerevisiae slowed by influenza A NS1, growth recovery by OD600; Potency, µM (top dose mostly 46.1 µM), for inactives: top-dose activity, positive = more growth; hit rate 0.4% among 270,000; AID 2326; also: actives are rising curves; nearly all actives have a fitted effect of over 50% in size
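OD600 was taken as the measure of yeast growth restored by compound in an NS1-expressing S. cerevisiae strain. Cells had been washed out of glucose medium and diluted 1:100 into galactose -URA medium, pH 6.0.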
Lassa entry inh: Lassa virus entry inhibition; Lassa virus pseudotype entry inhibition, cell reporter; control for the full effect not named in the record; Potency, µM (doses to about 37.9 µM), without a hit: top-dose activity change, negative = inhibition, most hits filed as inhibitors; hit rate 1.2% among 300,000; AID 540256; active means well fitted inhibition curve with a large enough effect; inconclusive means small, poorly fitted or top-dose-only effect, or effect the other way; inactive means flat fitted curve, though single readings scatter; tested in HEK293 cells; also: % is scaled to controls: 0 for no effect and ±100 for the full control effect; nearly all actives have a fitted effect of over 50% in size; luciferase read-out
SARS PLpro yeast: blocks SARS-CoV papain-like protease in a yeast assay; S. cerevisiae expressing SARS-CoV PLpro, growth rescue; control for the full effect not named in the record; Potency, µM (doses to about 32.9 µM), for inactives: at the top dose activity, positive = growth rescue; hit rate 0.19% among 330,000; also: 0% is about no effect; nearly all actives have a fitted effect of over 55% in size; growth read by luminescence after 48 h
2A StopGo: FMDV 2A StopGo reporter, luciferase signal. hit rate 1.2% among 410,000. human cells with a luciferase reporter of 2A StopGo recoding; control for the full effect not named in the record. AID 1159524. Potency, µM (titrated, usually from 57.9 µM), without a hit: at the highest dose signal change, negative = less light; active = well fitted falling curve with a large enough effect; inconclusive = small, poorly fitted or top-dose-only effect; inactive = no such curve, though single readings can be large or run the other way; tested in HEK293T cells; also: % is scaled to controls: 0 for no effect and ±100 for the full control effect; nearly all actives have a fitted effect of over 45% in size; luciferase light after 4 h
Numbers without * were called inactive; ? = inconclusive; nt = no result given; & = joins results of further samples; [ ] = another dose, or the depositor's remark. Unless noted, calls follow the shape of the dose curve; as a rule, active means well fitted rising curve with a large enough effect; inconclusive means small, poorly fitted or top-dose-only effect; inactive means no such curve, though single readings can be large or run the other way. Potency is read from the fitted curve at half-maximal effect. Outcome played no part in choosing rows. About 4.5% of those tested had a hit in this group.

SMILES	Cruzain noTriton	Cruzain Triton	MARV entry inh	RE007 growth inh	NS1 inh	Lassa entry inh	SARS PLpro yeast	2A StopGo
COc1cccc(C(=O)NNC(=O)C(=O)Nc2ccc(C)cc2)c1	nt	nt	?	-8%	-25%	0%[46.1 µM]	-8%	10%
COc1ccc(NC(=O)c2sc3nc(C)cc(C)c3c2N)cc1	nt	nt	nt	-3%	15%	nt	-2%	45%[activator]
CSc1ccc(S(=O)(=O)N2CCC(C(=O)NCCc3ccccc3)CC2)cc1	nt	nt	nt	-2%	18%	nt	9%	-6%
O=C(CCSc1nnc2ccccn12)Nc1ccc2c(c1)OCO2	nt	nt	-1%[46.1 µM]	-14%	nt	7%[46.1 µM]	-3%	5%
COc1cc2[nH]c(C(=O)N3CCN(c4ccc(F)cc4)CC3)cc2c(OC)c1OC	nt	nt	?	4%	-6%	?	1%	-12%
Nc1ncnc2c1CCC2	0%	-6.5%	1%	0%	-1%	17%	4%	24%
CCOc1ccccc1CN1CCN(Cc2nc3c(s2)CCCC3)CC1CCO (centres undefined)	nt	nt	nt	4%	1%	nt	1%	-10%
Cc1cc(C)n(C(=O)/C(C#N)=N\Nc2ccccc2[N+](=O)[O-])n1	nt	nt	-17%[46.1 µM]	0%	nt	1%	-13%	14%
O=C(O)c1ccc2c(c1)C1C=CCC1C(c1ccncc1)N2 (centres undefined)	nt	nt	?	-2%	2%	-3%	0%	-10%
Cc1ccc2c(c1)N(C(=O)CCC(=O)NCCCN1CCC(Cc3ccccc3)CC1)CCO2	nt	nt	nt	9%	-10%	nt	0%	?
Cc1cc(C(=O)OCC(=O)Nc2ncc(C(F)(F)F)cc2Cl)c(C)o1	2%	-1.8%	2%	-25%	-4%	?	-5%	-6%
CS(=O)(=O)c1ncc(N(Cc2ccco2)Cc2ccco2)c(C(=O)Nc2ccccc2Br)n1	6%	-0.7%	0%[46.1 µM]	nt	nt	4%[46.1 µM]	nt	-16%
Cc1ccc(OC(=O)c2ccc(S(=O)(=O)N(C)C)cc2)c(-n2nc3ccccc3n2)c1	?	2.2%	-12%	-22%	?	-13%	-9%	3%
O=C(N/N=C/c1ccccc1)c1ccc(CN2C(=O)c3cccc4cccc2c34)cc1	-68%	-1.7%	14%	-6%	16%	-1%	1%	-15%
CCOc1cccc(CN2CCCC(CNC(=O)c3cccc(OC)c3OC)C2)c1 (centres undefined)	nt	nt	2%[46.1 µM]	-10%	0%	-4%[46.1 µM]	-6%	-1%
Cn1c(C(=O)NCCCN2CCOCC2)cc2c(=O)n(C)c3ccccc3c21	0%	-2.1%	nt	6%	?	nt	8%	-7%
Cc1cc(C)n2ncc(C(=O)Nc3ccc4c(c3)OCO4)c2n1	1%	-2.8%	27%	-14%	-1%	?	-1%	6%
CN(C(=O)COC(=O)c1ccc(Cl)c(N)c1)c1ccccc1	nt	nt	-3%[46.1 µM]	2%	-1%	19%[46.1 µM]	0%	-8%
CC(Oc1ccc(Cl)cc1)c1ccnc(N)n1 (centres undefined)	nt	nt	-21%[46.1 µM]	-5%	0%	-29%	0%	6%
CCc1ccc(OCC(O)CN2CCN(c3ccccn3)CC2)cc1 (centres undefined)	nt	nt	nt	0%	?	nt	2%	-8%
CC(=O)c1sc(N2CCOCC2)nc1-c1ccccc1	nt	nt	29%[46.1 µM]	-1%	nt	?	0%	9%
COc1ccc(N=C2SC(CC(=O)Nc3ccccc3OC)C(=O)N2Cc2ccco2)cc1 (centres undefined)	-29%	-7.0%	?	-2%	10µM*	16µM*	-6%	-11%
CC(C)CCn1cnc2c(cnn2-c2ccc(F)cc2)c1=O	7%	3.4%	?	-12%	0%	3%	4%	11%
Cc1ccc(S(=O)(=O)N2CC(C)C(=O)CC2C)cc1 (centres undefined)	nt	nt	-10%[46.1 µM]	0%	-1%	-15%[46.1 µM]	-11%	13%
CCOC(=O)C(NCc1ccccc1OC)(NC(C)=O)C(F)(F)F (centres undefined)	-14%	3.1%	4%	3%	-1%	0%	3%	0%
COc1ccc(S(=O)(=O)NCC2CCCN(C(=O)c3cccnc3C)C2)cc1 (centres undefined)	nt	nt	nt	-5%	-1%	nt	1%	-1%
CCN(CC(=O)NCc1cccs1)c1nnnn1-c1ccccc1	-4%	-4.9%	?	16%	-4%	?	13%	-12%
CC1=NN(C(N)=S)C(=O)C1N=Nc1c(Br)cc(Br)cc1Br (centres undefined)	nt	nt	19%[46.1 µM]	1%	-94%	24%[46.1 µM]	-21%	-1%
O=C(Nc1ccc(OCC(=O)N2CCC(Cc3ccccc3)CC2)cc1)c1ccco1	8%	-3.7%	-2%	-3%	-10%	-19%	-9%	-16%
COC(=O)c1ccc(CSc2nnc(CNC(=O)c3ccccc3F)o2)o1	-1%	0.8%	?	10%	-9%	-11%	nt	3%
C(=C1/CCCC2=C1Nc1ncnn1C2c1ccccc1)/c1ccccc1 (centres undefined)	?	-0.2%	nt	nt	?	nt	?	nt
CCCCN(CC)Cc1ccc(CNC(=O)Nc2ccccc2)o1	-4%	1.5%	-7%	6%	-5%	4%	2%	3%
CCOc1ccc(CN2C(=O)C(=O)c3cccc(C)c32)cc1OC	10%	-0.5%	?	nt	nt	?	nt	-17%
COc1ccc(CC(=O)OCC(=O)N(CC(C)C)c2c(N)n(Cc3ccccc3)c(=O)[nH]c2=O)cc1	nt	nt	10%	-23%	nt	2%	nt	2%
COCCN1C=C2C(=O)C(C)(OC(=O)C3CCCC3)C(=O)C(c3ccccc3)=C2C=C1CCCC(=O)OC (centres undefined)	nt	nt	3%&3%[14.2 µM]	-10%	0%	nt	0%	-6%
Cc1nc2ccc(NC(=O)c3cccc(S(=O)(=O)N4CCOCC4)c3)cc2s1	nt	nt	?	-2%	nt	?	1%	32µM*
CCc1nnc(SC(C)C(=O)Nc2nccs2)n1C (centres undefined)	nt	nt	nt	-2%	10%	nt	3%	-19%
Cc1cccc(NC(=O)CNC(=O)COC(=O)CCS(=O)(=O)c2ccccc2)c1C	nt	nt	-4%	6%	?	-8%	0%	-20%
O=C(c1ccco1)[C@@H]1[C@@H]2C(=O)N(c3ccccc3)C(=O)[C@@H]2C2c3ccccc3C=CN21 (some centres undefined)	-17%	-8.3%	19%&0%	-15%	?	-9%	0%	13%
O=C1C2ON(c3ccccc3)C(c3ccncc3)C2C(=O)N1c1ccc(N2CCOCC2)cc1 (centres undefined)	?	-0.1%	-7%	-2%	-33%	nt	0%	-2%
COC(=O)c1ccc(CSc2nnc(Nc3ccc(C)cc3)s2)o1	18%	-0.6%	-1%	3%	-4%	1%	-2%	-9%
Cc1ccc(NC(=O)Nc2nnc(-c3ccncc3)s2)cc1C	nt	nt	nt	3%	1%	nt	0%	?
NS(=O)(=O)c1ccc(N2CCCCCC2)c([N+](=O)[O-])c1	nt	nt	?	1%	0%	?	0%	-14%
Cc1ccc(C(c2ccc(C)c(C)c2)C(O)C2OC(=O)C(O)C2O)cc1C (centres undefined)	nt	nt	-1%	10%	nt	24%	nt	-7%
COc1ccc(N(CC(=O)Nc2cccc(C)c2)S(=O)(=O)c2c(C)n[nH]c2C)cc1	?	1.1%	0%	9%	-4%	0%	-1%	-2%
Fc1ccc(CNc2nc(-c3ccc(Cl)cc3)cc(C(F)(F)F)n2)cc1	-20%	-4.0%	-10%[46.1 µM]	nt	nt	16%[46.1 µM]	nt	-11%
CC(=O)c1cc(F)c(N2CCN(C(=O)c3ccco3)CC2)cc1C	11%	0.3%	-3%	3%	-15%	-2%	-4%	-13%
C=C(C)CNC(=S)NN=C1c2ccccc2-c2ccccc21	nt	nt	?	-11%	nt	?	6%	-20%
O=C(NCCN1C(=O)S/C(=C\c2ccccc2)C1=O)c1cc(S(=O)(=O)N2CCOCC2)c(Cl)cc1Cl	?	-7.8%	?	-7%	9%	?	-9%	?
CCOc1ccc2[nH]c(=O)c(CN(Cc3cccnc3)C(=O)Nc3ccccc3OC)cc2c1	13%	-4.0%	-14%&-14%	-4%	-1%	-8%	5%	-10%

Continuation.
SMILES	Cruzain noTriton	Cruzain Triton	MARV entry inh	RE007 growth inh	NS1 inh	Lassa entry inh	SARS PLpro yeast	2A StopGo
Nc1nc(SCc2ccc(Cl)cc2)[nH]c(=O)c1-c1ccccc1	-5%	-5.8%	19%	11%	-3%	4%	1%	-4%
O=C1C(Nc2cccc(O)c2)=C(N2CCCCC2)C(=O)c2ccccc21	-23%	-7.8%	?	-28%	-4%	-24%	-2%	nt
Cc1ccc(NC(=O)C2CCN(S(=O)(=O)c3cccc4nonc34)CC2)nc1	2%	0.6%	-13%&-13%	1%	3%	5%	5%	-26%
O=C(N/N=C/c1ccsc1)c1ccc2c(c1)OCO2	nt	nt	-26%	-19%	nt	-2%	-1%	-3%
CCCCn1c(=O)c(C(=O)Nc2ccc(C)cn2)c(O)c2ccccc21	nt	nt	nt	7%	-8%	nt	1%	-3%
O=C(c1cc(F)ccc1F)C1CCCN(Cc2cc(Cl)ccc2O)C1 (centres undefined)	nt	nt	2%	0%	-20%	-1%	1%	?
CCc1ccc(C(=O)COC(=O)c2ccco2)cc1	nt	nt	nt	-14%	-10%	nt	-4%	31%[activator]
CC(C)(C)CC(=O)Nc1cc(S(=O)(=O)N2CCOCC2)ccc1N1CCCC1	nt	nt	-18%[46.1 µM]	4%	2%	8%	0%	-11%
COc1ccc2c(c1)c1c(c(=O)n(-c3ccccc3C)c(=O)n1CC(N)=O)n2C	4%	13%	nt	nt	nt	22%[46.1 µM]	nt	-23%
O=C(Nc1cccc(-c2cn3ccccc3n2)c1)c1ccccc1	nt	nt	?	-17%	nt	-1%	-17%	-28%
COC(=O)c1c(NC(=S)Nc2cc(OC)c(Cl)cc2OC)sc2c1CCCCC2	16µM*	-1.9%	8%	6%	11µM*	0%	-1%	-21%
CCN(CC)CCCN1C(=O)C(=O)/C(=C(/O)c2ccc3c(c2)OCCO3)C1c1ccc(C)o1 (centres undefined)	2%	3.2%	nt	nt	4%	nt	5%	nt
